Vaccinia mCherry: vaccinia inhibition (mCherry reporter). AID 720579. Vaccinia virus mCherry reporter infection, fluorescence; about a quarter of the inactives have no number. Potency, µM (titrated, usually from 36.5 µM), for the others: at the highest dose activity change, negative = inhibition, actives largely listed as inhibitors. hit rate 0.63% among 310,000; active = well fitted inhibition curve with a large enough effect; inconclusive = small, poorly fitted or top-dose-only effect; inactive = no such curve, though single readings can be large or run the other way; tested in A549 cells; note: nearly all actives have a fitted effect of over 35% in size; inactives centre near -10
Vaccinia Venus: vaccinia inhibition (Venus reporter) | Potency, µM (highest dose often 36.5 µM), inactives show at the highest dose activity change, negative = inhibition, hits mostly inhibitors | Vaccinia virus Venus reporter expression, fluorescence | hit rate 0.46% among 330,000 | AID 720580; active means well fitted inhibition curve with a large enough effect; inconclusive means small, poorly fitted or top-dose-only effect; inactive means no such curve, though single readings can be large or run the other way; tested in A549 cells; note: nearly all actives have a fitted effect of over 30% in size; inactives centre near -10
An asterisk follows results filed as active; i = inactive; ? = inconclusive; · = no result given; [ ] = remark or other dose. % is set by controls: 0 for no effect and ±100 for the full control effect; potency is the fitted concentration of half-maximal effect.

item	smiles	Vaccinia mCherry	Vaccinia Venus
1	Cc1ccc(C2(C)NC(=O)N(CC(=O)NC3CCCCC3)C2=O)cc1 (configuration not stated)	-13%	-9%
2	CCOc1ccc(CCNC(=O)c2cc(C)on2)cc1OCC	i	-17%
3	Cc1cc(C)n(C(=O)Cn2nc([N+](=O)[O-])cc2C)n1	5%	14%
4	COc1cc(NC(=O)Cc2ccccc2)ccc1NC(=O)c1ccccc1	-7%	-18%
5	CCC(=NC1CC(C)(C)NC(C)(C)C1)C1=C(O)CC(C)(C)CC1=O	·	-6%
6	O=C(CSc1nc2ccccc2[nH]1)NCc1ccco1	-20%	-5%
7	Cc1cc(C)nc(/N=C(\N)N2CCCCCC2)n1	-22%	-6%
8	CCOC(=O)c1ccc(NC(=O)C2=C(C)Nc3nc(SCc4ccc(Cl)cc4)nn3C2c2ccc(C)cc2)cc1 (configuration not stated)	-8%	0%
9	CCCCN1CC(N2CCN(CCO)CC2)CS1(=O)=O (configuration not stated)	36%[activator]	-12%
10	CCC1=NN(C(=O)Cc2ccc([N+](=O)[O-])cc2)C(O)(C(C)(C)C)C1 (configuration not stated)	-12%	11%

3 entries out of the list, sorted by heavy-atom count, ascending.
item	smiles	Vaccinia mCherry	Vaccinia Venus
6	O=C(CSc1nc2ccccc2[nH]1)NCc1ccco1	-20%	-5%
4	COc1cc(NC(=O)Cc2ccccc2)ccc1NC(=O)c1ccccc1	-7%	-18%
8	CCOC(=O)c1ccc(NC(=O)C2=C(C)Nc3nc(SCc4ccc(Cl)cc4)nn3C2c2ccc(C)cc2)cc1 (configuration not stated)	-8%	0%

Additional results:
item	smiles	Vaccinia mCherry	Vaccinia Venus
11	CC(C)Cc1ccc(S(=O)(=O)N2CCN(C(=O)c3ccco3)CC2)cc1	-9%	-24%
12	COc1ccc(-c2noc(-c3ccc(NC4CCCC4)c([N+](=O)[O-])c3)n2)cc1OC	1%	5%
13	COc1ccc(S(=O)(=O)N2CCCCCC2)cc1C(=O)Nc1cccc(C)n1	-6%	-14%
14	CC(=O)c1c(C(C)=O)c(C)n(-c2ccc(N)c(C)c2)c1C	-16%	-2%
15	Cc1cc(Cl)ccc1OCCCC(=O)NCC1CCCO1 (configuration not stated)	-24%	-14%
16	CC1(C(=O)NS(=O)(=O)c2cccc(Cl)c2)CCN1C(=O)C1(c2ccc(Cl)cc2)CC1 (configuration not stated)	18%	17%
17	COC(=O)C1CCN(S(=O)(=O)CCNC(=O)c2ccc(F)cc2)CC1	-19%	-5%
18	CCOC(=O)CCc1c(C)c2ccc(OC3CCCCC3=O)cc2oc1=O (configuration not stated)	i	-8%
19	CCOC(=O)C(=NC1CCCCC1)NNc1cccc(C(F)(F)F)c1	-18%	-17%
20	NC(=O)c1ccccc1N/C=C/C(=O)c1ccc(F)cc1	?	-23%
21	COc1cccc(-n2nnnc2SCC(=O)Nc2nc3c(s2)CCCC3)c1	·	-20%
22	CCn1nc(-c2ccccc2)c(-c2ccccc2)c(C(=O)Nc2nc(C)c(C(=O)N(C)C)s2)c1=O	-4%	-13%
23	Cc1cc(OCCn2ccnc2)ccc1C(C)C	i	-16%
24	COCCn1c(SCC(=O)N2CCCC2=O)nnc1-c1ccncc1	i	-11%
25	COc1ccc(-c2cnc(N)n2C)cc1	i	?
26	COc1ccc(/C=C2/CCCc3ccccc3C2=O)cc1	?	-30%
27	O=C(Nc1cccn2ncnc12)c1cccc(C(F)(F)F)c1	-18%	1%
28	O=C(COc1ccc(Cl)cc1)NCC(c1ccco1)S(=O)(=O)c1ccc(F)cc1 (configuration not stated)	-9%	-14%
29	Cc1ccc(S(=O)(=O)NCC(=O)NNC(=O)c2ccccc2Cl)cc1C	i	-8%
30	O=C(Cn1nnc(-c2ccccc2)n1)Nc1cccc(S(=O)(=O)N2CCCC2)c1	?	-25%
31	CC(C)(C)n1nnnc1C(c1ccncc1)N1CCCCCC1 (configuration not stated)	i	-6%
32	COc1ccc(C)cc1-n1c(-c2ccncc2)n[nH]c1=S	-12%	-7%
33	COc1cc(NC(=O)c2cc(C)nc3c2c(C)nn3-c2ccccc2Cl)cc(OC)c1	-8%	3%
34	Cc1c(C(=O)NC2CCCCC2)sc2ncnc(N3CCN(c4ccccc4)CC3)c12	i	-4%
35	COc1ccc(CCn2c(=O)[nH]c3cc(C(=O)N4CCN(c5ccccc5)CC4)ccc3c2=O)cc1OC	?	?
36	CC1CCCCC1NC(=O)CSC1=Nc2ccccc2C2CC=NN12 (configuration not stated)	i	-9%
37	Cc1ccc2c(=O)cc(C(=O)Nc3cccc(Cl)c3C)oc2c1C	9%	-2%
38	Cc1cc(N2CCN(C)CC2)nc2ccc(NC(=O)Nc3ccccc3)cc12	i	-5%
39	Cn1cc([N+](=O)[O-])c(C(=O)NNC(=O)c2ccc([N+](=O)[O-])cc2)n1	i	-1%
40	Cc1ccc(NC(=O)C2C(c3ccccc3)C=CC(c3ccccc3)C2C(=O)O)cc1 (configuration not stated)	-12%	-11%
41	Cn1nnnc1SCc1nc2ccccc2s1	·	-14%
42	O=C(CC1S/C(=N/N=C/c2ccco2)NC1=O)Nc1cccc(Cl)c1Cl (configuration not stated)	2%	-10%
43	COc1cc(NC(=O)CC2C(=O)N(c3ccccc3)C(=O)N2Cc2ccc(F)cc2)cc(OC)c1 (configuration not stated)	-10%	-10%
44	Cc1cc(C)cc(NC(=O)c2ccc(CSc3nnnn3C)cc2)c1	-13%[1.46 µM]	-12%
45	COc1ccc(C2C(C(=O)OC3CCCCC3)=C(C)Nc3nnnn32)c(OC)c1OC (configuration not stated)	i	-15%
46	CCc1ccccc1NC(=O)CN1C(=O)c2cccnc2Oc2ccc(Cl)cc21	-4%	-12%
47	CS(=O)(=O)N(CC(=O)Nc1ccccc1C(=O)NCCc1ccccc1)c1ccc2c(c1)OCCO2	-23%	-24%
48	C=CCNC(=O)CC(=O)N/N=C/c1cccc(C)c1	i	-7%
49	CN1OC[C@@H]2CN[C@H](c3ccc(-c4cccc(F)c4)cc3)C[C@@H]21	-20%	-18%
50	Cc1nnc(SCC(=O)N(C)Cc2ccccc2)[nH]c1=O	-6%	-4%

Shown as labelled records: entries from further up
18. CCOC(=O)CCc1c(C)c2ccc(OC3CCCCC3=O)cc2oc1=O (configuration not stated)
  Vaccinia mCherry: i
  Vaccinia Venus: -8%
14. CC(=O)c1c(C(C)=O)c(C)n(-c2ccc(N)c(C)c2)c1C
  Vaccinia mCherry: -16%
  Vaccinia Venus: -2%

The list goes on.
item	smiles	Vaccinia mCherry	Vaccinia Venus
51	Cc1ccc(C(=O)Nc2ccccc2N2CCCCC2)cc1S(=O)(=O)N1CCOCC1	?	-29%
52	CCOC(=O)c1nnn(CC(=O)N2N=C(c3ccccc3)CC2c2ccccc2)c1C(=O)OCC (configuration not stated)	-8%	-9%
53	CCCCCCN1CCN(C2CN(CCCC)S(=O)(=O)C2)CC1 (configuration not stated)	52%[activator]	-5%
54	C=CCn1c(O)c(C(CC)=NCC2CCCO2)c(=O)[nH]c1=O (configuration not stated)	-4%	-10%
55	CCCN(c1ccc(C(=O)OC)cc1)S(=O)(=O)c1ccccc1	i	6%
56	COc1cc(OC)cc(C(=O)NCC2CCCO2)c1 (configuration not stated)	-20%	-17%
57	O=S(=O)(Nc1c(O)ccc2ccccc12)c1cccc2ccccc12	-8%	-4%
58	O=S(=O)(c1c(F)cccc1F)N(CCc1ccc(F)cc1)C[C@@H](O)COCc1ccccc1	-18%	?
59	COc1cccc(NC(=O)CCNS(=O)(=O)c2ccc3c(c2)CCCC(=O)N3)c1	-7%	2%
60	COc1cccc2c(Cl)c(CC=C(Cl)Cl)c(C)nc12	-20%	-18%
61	CN(Cc1ccon1)C(=O)c1ccc2nc(Cc3cccc(Cl)c3)oc2c1	-11%	-7%
62	O=C(COC(=O)Cc1ccc([N+](=O)[O-])cc1)NCc1ccc2c(c1)OCO2	i	-5%
63	COc1cc2c(cc1NC(=O)c1cccc(F)c1)CCCC2	-2%	-21%
64	CCCCSCCCNC(=O)CCCN1C(=O)c2ccccc2Sc2ncccc21	i	-12%
65	CCC(Sc1nnc2c3ccccc3n(CC)c2n1)C(=O)Nc1sc2c(c1C#N)CCCC2 (configuration not stated)	1%	-1%
66	CCN(CC)c1ccc(/C=N/OCC(=O)Nc2cccc(C)c2)cc1	-11%	-1%
67	NC(=O)COC(=O)CC(c1ccccc1)c1ccccc1	i	-3%
68	CN(C)c1ccc(S(=O)(=O)NCC(=O)OCC(=O)Nc2cccc(Cl)c2)cc1[N+](=O)[O-]	i	18%
69	Nc1nc2sc3c(c2c(=O)s1)CCCC3	-21%	-23%
70	Cc1ccc(C(CC(N)=O)c2ccco2)cc1 (configuration not stated)	i	-11%

A second format for some results above.
Every second line gives: Vaccinia mCherry, Vaccinia Venus
39) Cn1cc([N+](=O)[O-])c(C(=O)NNC(=O)c2ccc([N+](=O)[O-])cc2)n1
    i, -1%
52) CCOC(=O)c1nnn(CC(=O)N2N=C(c3ccccc3)CC2c2ccccc2)c1C(=O)OCC (configuration not stated)
    -8%, -9%

Next structures.
item	smiles	Vaccinia mCherry	Vaccinia Venus
71	COc1ccc(-c2cc(C)no2)cc1S(=O)(=O)NCC(C)c1ccccc1 (configuration not stated)	-10%	?
72	CCOc1ccc(C(=O)c2cn(CC(=O)Nc3ccc4c(c3)OCCO4)c3ccc(F)cc3c2=O)cc1	-23%	-22%
73	CCN(CC1CCCN(CCc2cccc(F)c2)C1)C(=O)c1ccoc1C (configuration not stated)	?	-5%
74	Cc1ccc(S(=O)(=O)/N=C2/NC(=O)/C(=C/c3ccccc3)S2)cc1	i	-7%
75	COc1ccc(S(=O)(=O)N2CCC(C(=O)NC(C)CCc3ccccc3)CC2)cc1 (configuration not stated)	-12%	-9%
76	COc1ccc2c(C)cc(SCC(=O)NCCN3C(=O)CSC3=O)nc2c1	-13%	-4%
77	CCOC(=O)C1C(c2ccc(Cl)cc2)NC(=S)NC1(O)C(F)(F)F (configuration not stated)	i	-2%
78	COc1ccc(C(=O)NCCNC(=O)c2cnccn2)cc1	-8%	-9%
79	O=C(O)CCSc1nnc(CNc2ccc(Cl)cc2)n1Cc1ccccc1	-26%	-9%
80	CCN1CCN(Cc2c(O)ccc3c2O/C(=C\c2ccccc2)C3=O)CC1	-12%	-14%
81	C=CCN1CC[C@@H](O)C(=C)S1(=O)=O	-20%	-11%
82	COc1cccc(C(=O)NCCS(=O)(=O)N(C)C2CCCCC2)c1	-21%	-12%
83	COC(=O)[C@@H]1[C@@H](C)N(Cc2ccccc2)C(=O)N[C@H]1c1cccc(C(F)(F)F)c1	i	-15%
84	CCCc1cc(N2CCC(C(N)=O)CC2)nc(-c2ccccc2)n1	-3%	-8%
85	CC(=O)c1ccc(S(=O)(=O)N2CCN(C(=O)CSC(=S)N3CCCC3)CC2)cc1	-16%	-15%
86	Cc1ccc(N(C)C(=O)C2CCCN(c3ncnc4c3nc3n4CCCCC3)C2)cc1C (configuration not stated)	i	-19%
87	Cc1ccccc1NC(=O)CN1CCCC1	-2%	1%
88	Cc1ccc(NNC(=O)c2sccc2Cl)c(C)c1	i	-16%
89	CCOCC(=O)Nc1ccc(-c2cn3c(C)csc3n2)cc1	-9%	-5%
90	Cc1ccc(C(=O)N2CCN(c3ccc(N4CCOCC4)nn3)CC2)cc1C	-19%	-9%
91	O=C1C2CC=CCC2C(=O)N1c1n[nH]c(-c2ccccc2)n1 (configuration not stated)	-23%	-17%
92	CCN(C(=O)COC(=O)C1CC1C)c1c(N)n(Cc2ccccc2)c(=O)[nH]c1=O (configuration not stated)	i	-12%
93	COc1ccc(NCc2n[nH]c(=O)c3ccccc23)cc1	-5%	-16%
94	C=CCOc1ccc(/C=N/NC(=O)CN2CCCCC2)cc1OC	i	-12%
95	CCS(=O)(=O)Nc1ccc(C2=NN(C(=O)c3ccco3)C(c3ccc(Cl)o3)C2)cc1 (configuration not stated)	?	?
96	Cc1ccc(NC(=S)N(CCN(C)C)Cc2cccs2)c(C)c1	-11%	-9%
97	COc1ccccc1NC(=O)c1cc2cc3ccc(OC)c(Cl)c3nc2s1	-7%[7.34 µM]	-12%[7.34 µM]
98	COc1ccccc1NC(=O)C(=O)c1cc(C)n(-c2cc(C)cc(C)c2)c1C	-11%	6%
99	COc1ccccc1CNS(=O)(=O)c1c(C)nc2sc(C)cn2c1=O	-18%	-7%
100	CC(C)(C)c1cccc(P(=O)(c2ccccc2)c2ccccc2)c1O	5%	-3%
101	Cc1cc(N2CCN(C(C(=O)NC3CCCC3)c3ccco3)CC2)c2ccccc2n1 (configuration not stated)	7%	-13%
102	C/C(=N\NC(=O)CNC(=O)C1COc2ccccc2O1)c1ccco1 (configuration not stated)	-4%	-10%
103	CS(=O)(=O)N1N=C(c2cccs2)CC1c1ccco1 (configuration not stated)	-13%	-11%
104	CCN(CCCNC(=O)CN1N=C(c2ccc(C)cc2)CCC1=O)c1ccccc1	-18%	-8%
105	Cc1ccccc1NC(=O)c1cc(S(=O)(=O)c2ccccc2)ccc1Cl	·	-24%
106	O=C(O)c1ccc(S(=O)(=O)c2ccccc2)s1	-19%	-11%
107	CNC(=S)Nc1cccc(-c2cnc3ccccc3n2)c1	?	?
108	CCOC(=O)C1CCN(C(=O)CN2C(=O)c3ccccc3Sc3ncccc32)CC1	7%[7.34 µM]	12%[7.34 µM]
109	Cc1ccc(CNC(=O)c2nc(SCc3ccc(C)cc3)ncc2Cl)cc1	-15%	-28%
110	COc1ccccc1NS(=O)(=O)c1cccc(NC(=O)Nc2ccccc2)c1	-13%	?
111	Cc1nc2ccc(S(=O)(=O)NCC(=O)NCCc3ccc(Cl)cc3)cc2s1	-23%	-14%
112	O=C(CSCc1ccco1)NC1CCCC1	i	-12%
